Screening data deposited in PubChem by several laboratories.
UCH37 inh – inhibitors of human deubiquitinating enzyme UCH37; Q9Y5K5; purified proteasome/UCH37, Ub-AMC cleavage fluorescence; inhibition, % (concentration not given with the values); 330,000 tested, 0.33% active; AID 588478;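 active = mean of two replicates above 20%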;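 note: 0% = compound-free wells with enzyme and 100% = wells lacking proteasome; stock transfer was 100 nL into about 20 µL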
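Signal – fluorescence, ex 355 nm, em 460 nm · System – Proteasome-bound UCH37 · Input – 0.15 nM proteasome as dispensed · Timing – 30 min preincubation with enzyme, 25 min cleavage at room temperature · Read-out basis – percent inhibition of cleavage signal versus uninhibited and no-proteasome wells · Medium – Tris-HCl pH 7.4 with ATP-MgCl2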
E coli growth – E. coli growth inhibition. Escherichia coli growth, OD600, 23 h; hits give low values. OD600 absorbance (test concentration not listed). 330,000 tested, 0.21% active;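 active = OD600 absorbance below the run mean of sample wells minus 3.6 SD, in any replicate, cut at about 0.56 in these data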;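 note: stock transfer was 300 nL into about 60 µL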
B2AR ag – agonists of human beta-2 adrenergic receptor inducing internalization. Am2.2-beta2AR cells, FAP receptor internalization, flow cytometry; reference of the scale not given here. response, % (no concentration beside the values). 340,000 tested, 0.43% active;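 active = response above a set limit, near 3 SD of response in nonfluorescent compounds, cut at about 42% in these data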;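 note: stock transfer was 100 nL into about 11 µL; a reference agonist was the positive control; negative values mostly stem from fluorescent compounds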
Target sequence (P07550 whole entry, looked up): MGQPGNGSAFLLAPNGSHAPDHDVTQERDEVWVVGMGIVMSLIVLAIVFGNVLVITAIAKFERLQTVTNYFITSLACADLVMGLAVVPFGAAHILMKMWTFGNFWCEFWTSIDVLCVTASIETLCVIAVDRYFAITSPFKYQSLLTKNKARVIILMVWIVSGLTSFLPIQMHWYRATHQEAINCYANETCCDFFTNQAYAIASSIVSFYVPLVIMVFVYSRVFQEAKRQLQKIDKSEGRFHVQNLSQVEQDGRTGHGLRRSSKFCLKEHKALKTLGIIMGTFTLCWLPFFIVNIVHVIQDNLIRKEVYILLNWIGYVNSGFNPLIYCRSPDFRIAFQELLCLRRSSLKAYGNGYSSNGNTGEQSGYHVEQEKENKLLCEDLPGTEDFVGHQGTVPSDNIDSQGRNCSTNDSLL
A1 inh – inhibitors of the anti-apoptotic protein A1, read as caspase activation | AID 2462 | caspase activation, % (test concentration not listed) | MEF A1-2A-BIM cells, Caspase-Glo 3/7 luminescence, 3 h; percent of clofoctol response, vehicle zero | 330,000 tested, 0.066% active;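 active = over half of replicate activation scores above 10%, or exactly half above 10 with the replicate mean above 10; inconclusive = replicate mean below 10 yet half the replicates above 10; inactive = over half of replicates below 10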;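 note: wells of about 30 µL received 50 nL stock; many hits fall short of the cut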
Vif TR-FRET – inhibitors of Vif binding to APOBEC3G peptide, primary screen, biochemical, TR-FRET, GST-Vif 1-94, biotin-A3G peptide, dose response retest (AID 1117319). TR-FRET GST-Vif / biotin-A3G peptide binding; higher % means a stronger effect; test concentration not given here; strong numbers were not always called active. one-dose inhibition, %; IC50 in µM for titrated hits. 260,000 tested, 0.57% active;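 active = above the screen mean plus three standard deviations and confirmed in dose response; inconclusive = results disagree or hit not tested in dose response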;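 note: Vif residues 1-94 fused to GST binding biotinylated APOBEC3G peptide 110-148; 0% = full assay without inhibitor and 100% = GST in place of GST-Vif; retest series ran down from 100 µM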
HNF4A DNA FP – change in binding of human HNF4 alpha to DNA. HNF4a-FITC DNA binding, fluorescence polarization, 1 h. activity change, % at 10 µM. 360,000 tested, 0.3% active. AID 1224865; in the data active = activity change above about 30%, passing the limit was not always enough;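 note: controls were the assay level and a saturating level of protein; the project sought stronger binding though the title names inhibitors; some compounds called inactive have numbers as strong as hits; positive values seem to mean higher polarization but the record does not say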
Target sequence (P41235 whole entry, looked up): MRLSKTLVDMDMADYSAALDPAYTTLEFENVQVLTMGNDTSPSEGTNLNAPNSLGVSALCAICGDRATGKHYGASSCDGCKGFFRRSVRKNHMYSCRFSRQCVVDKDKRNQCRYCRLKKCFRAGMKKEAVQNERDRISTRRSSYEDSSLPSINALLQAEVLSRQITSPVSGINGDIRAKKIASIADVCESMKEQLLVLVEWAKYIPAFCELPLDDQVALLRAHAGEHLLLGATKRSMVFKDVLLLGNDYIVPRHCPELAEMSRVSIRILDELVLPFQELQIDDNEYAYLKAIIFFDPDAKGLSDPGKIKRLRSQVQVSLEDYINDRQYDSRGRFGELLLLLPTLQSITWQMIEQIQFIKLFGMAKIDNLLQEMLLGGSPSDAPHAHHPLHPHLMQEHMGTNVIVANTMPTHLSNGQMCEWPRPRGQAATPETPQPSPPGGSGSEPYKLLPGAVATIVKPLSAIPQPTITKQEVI
LANA-H2B inh – blocks KSHV LANA binding to histone H2A/H2B; Q9QR71; cell-free LANA-H2A/H2B peptide, fluorescence polarization; inhibition, % (concentration not given with the values); 320,000 tested, 0.6% active; AID 2629; in the data active = inhibition mostly above about 10%, no sharp cut-off; inactive = mostly below about 6.7%;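 note: stock transfer was 7.5 nL into about 10 µL; 0% = median of vehicle wells and 100% = median of positive control wells; one replicate is shown; the record names a cut of 25% in any replicate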
Numbers without * were called inactive; u = inconclusive; x = not tested or not shown; & = joins results of further samples; ! = not confirmed by another sample.

Value order: UCH37 inh, E coli growth, B2AR ag, A1 inh, Vif TR-FRET, HNF4A DNA FP, LANA-H2B inh
O=C(Nc1ccc(F)cc1)c1ccccc1CC[N+](=O)[O-]
 : 4.0, 0.68, -4, u, 5%, 1.7, -4.4
COc1cc(Br)cc(/C=N/NC(=O)Cc2ccccc2)c1O
 : x, x, 10, 0.5, x, 2.6, -5.5
COC(=O)[C@H]1C[C@@H]1[C@H](NS(=O)(=O)c1ccc2ccccc2c1)c1ccccc1
 : 4.0, x, 2, 1.5, 0%, -5.7, -1.2
O=C1CCCC/C1=N\Nc1ccc(OCc2ccccc2)cc1
 : x, x, 3, u, x, -1.0, 2.6
CSc1cc(C)n(-c2ccccc2)c(=S)c1C(C)=O
 : 7.4, 0.72, 1, 0.3, -3%, 0.7, -3.1
CCN(CC)C(=S)NC(=O)c1ccc(OC)c(Br)c1
 : 4.4, 0.63, 0, -0.8, -4%, 3.8, -0.6
O=C(O)CN1C(=O)COc2ccc(S(=O)(=O)N3CCCCCC3)cc21
 : 3.6, 0.66, 6, 2.2, 3%, -0.9, -0.6
Cc1cc(C)cc(NC(=O)COC(=O)c2ccc3c(c2)OCCO3)c1
 : -0.9, 0.73, -2, -1.0, -39%, -6.4, 12*
COc1ccc(-c2onc(C)c2-c2ccc(C(=O)OC(C)C)o2)c(O)c1
 : -3.0, 0.64, 4, -0.3, u, -0.3, 4.2
COc1ccc(C(=O)Nc2ccc([N+](=O)[O-])cn2)cc1OC
 : 3.6, 0.64, -2, 0.1, 16%, 0.6, -5.3
CCC(C(=O)NCc1ccco1)N(C(=O)CNS(=O)(=O)c1ccc(C)cc1)c1ccccc1OC (stereo not drawn)
 : 4.0, 0.69, 3, x, u, -1.3, x
CCN(CC)CCC(O)(c1ccccc1)C1CCCCC1 (stereo not drawn)
 : 2.0, 0.69, -7, 0.3, x, -0.3, 3.6
CC(C)C(OC(=O)c1ccc(Cl)nc1)C(=O)NC1CCCCC1 (stereo not drawn)
 : 5.6, 0.68, -7, -0.2, x, 2.7, 3.3
NC1=NC(=O)C(CC(=O)Nc2ccc3c(c2)OCO3)S1 (stereo not drawn)
 : 2.6, 0.76, 1, -0.9, 21%, -1.1, -1.2
COC(=O)c1cc(S(=O)(=O)NCc2cc(OC)c(OC)c(OC)c2)cn1C
 : 2.2, 0.67, -2, 0.5, -11%, 5.8, -1.7
CCOC(=O)CSc1nc2c(sc(=S)n2-c2ccccc2OC)c(=O)n1Cc1ccco1
 : 3.4, 0.76, 12, -0.2, 27µM*!, 2.4, 1.0
CC(=O)c1c(C)oc2ccc(N(C(C)=O)S(=O)(=O)c3cccc4cccnc34)cc12
 : 4.8, 0.68, 7, -0.7, 3%, -2.6, -11
C=CCNC(=O)c1onc(CSc2cccc3ccccc23)c1C(=O)O
 : 1.5, 0.67, -5, 0.6, -3%, 3.1, 2.6
CCOC(=O)N1CCN(CC(=O)Nc2nc3ccc(OC)cc3s2)CC1
 : 3.7, 0.68, 2, 1.9, x, -5.3, -4.1
Cc1cc(-c2ccc(S(=O)(=O)N(C)c3ccc(C)c(C)c3)s2)on1
 : 3.0, 0.73, -2, 1.0, 0%, 1.1, 3.3
CCCN1CCC(NC(=O)Nc2ccccc2C(=O)OC)CC1
 : -12, 0.69, 1, -0.5, -3%, -2.1, -2.6
COc1ccc(/C=C2\N=C3CCCCCN3C2=O)cc1
 : 11, 0.68, 4, 0.1, x, 2.2, 3.9
COc1ccccc1CNC(=O)COC(=O)c1ccccc1-c1ccccc1
 : 1.4, 0.58, -1, 0.7, 13%, -1.5, -1.6
COc1ccc(-c2nc(SCC(=O)Nc3cccc(S(N)(=O)=O)c3)n[nH]2)cc1
 : 2.4, 0.66, -9, x, 3%, -3.7, x
S=c1nc(-c2cc(Cl)cc(Cl)c2)[nH][nH]1
 : 2.4, 0.64, -3, -0.3, -21%, -4.3, -1.0
O=C(CSc1nnc(Cn2nnc3ccccc32)o1)Nc1cccc(Cl)c1
 : 0.5, 0.66, 1, 0.8, -5%, -1.6, 3.2
O=C(COC(=O)c1ccc(Cl)nc1)Nc1cccnc1Cl
 : -1.3, 0.68, 2, -0.7, 1%, 0.5, -3.7
COCCOC(=O)C1=C(C)Nc2nc(C)nn2C1c1ccc(F)cc1 (stereo not drawn)
 : 4.2&5.3, 0.69&0.73, -6&-6, 0.3, -6%&-3%, 4.1&-2.1, -0.4
CC1CCN(CC(=O)Nc2cc(C(F)(F)F)ccc2Cl)CC1
 : 4.6, 0.68, -5, 0.5, 1%, -1.2, 2.8
Cc1cc(Cl)ccc1OCCCC(=O)NCCc1nnc2ccccn12
 : 3.6, 0.67, 8, -0.2, x, -1.9, -1.9
CO/N=C/NC(=O)c1c(OC)ccnc1Oc1ccccc1
 : 4.3, 0.7, 16, 0.2, -2%, -2.3, -4.2
O=C(NCCCN1CCN(c2ccccc2F)CC1)C1CC(=O)N(C2CCCC2)C1 (stereo not drawn)
 : 4.2, 0.73, 1, 0.4, -5%, 2.9, 3.9
Cn1c(CCN2CCOCC2)nc2cc(NS(=O)(=O)c3ccccc3)ccc21
 : 0.3, 0.64, 0, 0.7, 6%, -0.3, 1.0
CC(Oc1ccc(F)cc1)C(=O)N(CCC1=CCCCC1)c1c(N)n(Cc2ccccc2)c(=O)[nH]c1=O (stereo not drawn)
 : 3.7, 0.64, 2, -0.3, 1%, 1.8, 1.6
CCC(C(=O)Nc1sc(C(N)=O)c(C)c1C(=O)OC)c1ccccc1 (stereo not drawn)
 : 1.2, 0.7, -37, 0.1, x, 4.1, 0.3
C=CCn1c(SCC(=O)Nc2nc3ccccc3s2)nnc1-c1ccccc1O
 : 1.7, 0.64, -5, 0.6, 19%, -1.3, -3.1
COc1ccc(CC/C(C)=N\NC(N)=O)cc1
 : x, x, -12, 1.0, 1%, -3.0, 3.1
Cc1sc2ncnc(N3CCOCC3)c2c1C
 : 1.8, 0.69, -2, -0.3, -2%, 3.8, 3.1
Cc1nc(-n2[nH]c3c(c2=O)CCCC3)[nH]c(=O)c1Cc1ccccc1
 : 0.3, 0.66, 3, -0.1, 26%, 44*, 4.2
CN(C)S(=O)(=O)N1CCN(S(=O)(=O)c2ccc3ccccc3c2)CC1
 : 3.1, 0.71, -8, -0.3, -5%, -1.1, -1.0
Cc1ccc(/C=N/n2c(-c3cccs3)n[nH]c2=S)cc1
 : x, x, 12, 0.7, 3%, -0.3, -3.0
CCCC12CN3CC(CCC)(CN(C1)C3C(O)C(O)C(O)CO)C2=O (stereo not drawn)
 : 2.7, 0.72, 4, -0.5, 14%, 4.6, 6.3
C=C[C@H]1[C@H](O[C@@H]2O[C@H](CO)[C@@H](O)[C@H](O)[C@H]2O)OC=C2C(=O)OCC[C@]21O
 : 1.9, x, 3, 0.4, x, 0.2, 1.3
O=C(NCc1ccc(F)cc1)C(c1ccco1)N(C(=O)c1csnn1)C1CC1 (stereo not drawn)
 : 3.5, 0.66, -4, -0.3, x, -0.4, 5.7
CCN(c1ccccc1)S(=O)(=O)c1cc(NC(=O)C2CC2)ccc1Cl
 : 2.7, 0.68, -6, -0.2, x, 4.1, -1.3
Cc1ccc(S(=O)(=O)Oc2cccc(N3C(=O)C4CC=CCC4C3=O)c2)cc1 (stereo not drawn)
 : 5.2, 0.74, -6, 1.0, 6%, -1.6, 6.0
CCOc1ccc(-n2cnc3sc4c(c3c2=O)CCCC4)cc1
 : 1.3, 0.67, -2, -1.0, -6%, 3.2, -8.6
FC(F)(F)c1cc(-c2ccco2)nc(NCc2ccc(Cl)cc2)n1
 : -15, 0.7, -1, 0.0, 4%, 0.6, -1.2
C=CCN1C(=O)C2(OCCCO2)c2c(C)ccc(C)c21
 : 4.3, 0.71, 3, -0.1, x, 0.7, 0.3
COc1ccccc1NC(=O)N1CCN(c2ccccc2F)CC1
 : 1.3, 0.69, 3, -0.8, u, -0.9, -1.7
COc1cc2c(cc1OC)C1=C(C#N)CC/C(=N\S(=O)(=O)c3cccc(Cl)c3)N1CC2
 : x, x, 6, -1.0, -5%, -0.3, 1.6
COc1cc(/C=C/C(=O)O)cc(S(=O)(=O)Nc2ccc3c(c2)OCO3)c1OC
 : 1.3, 0.71, 0, 0.3, 0%, -0.8, -2.0
O=C(NCc1nc2ccccc2[nH]1)c1ccc(S(=O)(=O)N2CCCC2)cc1
 : -0.6, 0.66, -2, 0.1, -5%, 0.1, 1.8
Cc1ccc(C(=O)NC2CC(C)(C)NC(C)(C)C2)cc1S(=O)(=O)N1CCOCC1
 : 0.5, 0.69, 0, x, 4%, 3.4, x
COc1cccc(C(=O)c2sc(NC(C)C)nc2N)c1
 : 11, 0.75, 10, -0.4, 12%, -0.2, -3.8
CCOC(=O)c1c(C)nc(-c2ccccc2)nc1NC(C)=O
 : -0.6, 0.77, -3, 0.3, 2%, -3.2, 5.5
CC1CC(C)CN(C(=O)Cn2c(=O)n(CCCCC(=O)NCc3ccco3)c(=O)c3ccccc32)C1 (stereo not drawn)
 : -1.5, 0.79, -1, -0.8, -5%&5%, 0.4, 2.8
CCCCCN1CC(=O)N2[C@@H](Cc3c([nH]c4ccccc34)C2(C)C)C1=O
 : 0.0, 0.61, -3, 1.9, 2%, 1.4, 1.0
O=C(CNC(=O)c1ccc(Br)o1)OCc1ccc(Br)cc1
 : x, x, 9, 0.7, 2%, -1.4, x
COc1ccccc1OCCC(=O)OCC(=O)Nc1ccc(Br)cc1F
 : -0.5, 0.73, -1, 1.8, 8%, 1.0, 4.6

(continued)
Value order: UCH37 inh, E coli growth, B2AR ag, A1 inh, Vif TR-FRET, HNF4A DNA FP, LANA-H2B inh
COc1cc(CNC2CCCCCC2)cc(OC)c1OC
 : 4.0, 0.7, -5, -0.6, 18%, -0.9, -3.9
Cc1ccc(-c2nc(-c3ccncc3)no2)c(Cl)c1
 : 3.1, 0.69, -5, -4.4, x, 2.3, 4.0
COc1ccc(CN2CCNC(=O)C2CC(=O)N2CCc3ccccc3C2)c(OC)c1 (stereo not drawn)
 : 3.9, 0.69, 0, 1.8, x, 1.5, -2.0
NC(=O)C1(N2CCCCC2)CCN(C(=O)NC2CCCCC2)CC1
 : -4.2, 0.71, 2, 0.6, 14%, -2.0, 0.4
COc1ccccc1CN1CCNC(=O)C1CC(=O)N(C)Cc1ccon1 (stereo not drawn)
 : -2.2, 0.69, -3, -0.2, x, 0.4, -8.6
O=C(NNC(=S)NC1CC2C=CC1C2)c1cccnc1 (stereo not drawn)
 : 1.9, 0.65, -2, 0.1, -4%, 0.3, -1.9
O=C(OCc1nnc(-c2ccccc2)o1)c1ccc(CO)cc1
 : 0.7, 0.7, -12, 0.8, x, -1.0, 9.7
O=C(N/N=C/c1ccccc1)c1ccco1
 : x, x, 0, -3.9, x, 3.3, -8.4
CCNC(=O)CC1SC(=Nc2ccc(Cl)cc2)N(CC)C1=O (stereo not drawn)
 : -0.6, 0.71, -3, 0.6, x, -2.4, 9.6
O=C(NC1CCCCC1)C1CC(O)CN1C(=O)OCc1ccccc1 (stereo not drawn)
 : 5.1, 0.77, -2, -0.3, u, -0.2, -3.3
O=C(NCc1ccco1)C1CCCN(S(=O)(=O)c2cccc3nsnc23)C1 (stereo not drawn)
 : 3.2, 0.77, -2, 0.6, >100µM*, 0.5, -2.8

A draw from above in order of SMILES length, smallest number first.
Value order: UCH37 inh, E coli growth, B2AR ag, A1 inh, Vif TR-FRET, HNF4A DNA FP, LANA-H2B inh
O=C(N/N=C/c1ccccc1)c1ccco1
 : x, x, 0, -3.9, x, 3.3, -8.4
O=C(NNC(=S)NC1CC2C=CC1C2)c1cccnc1 (stereo not drawn)
 : 1.9, 0.65, -2, 0.1, -4%, 0.3, -1.9
COc1ccccc1CN1CCNC(=O)C1CC(=O)N(C)Cc1ccon1 (stereo not drawn)
 : -2.2, 0.69, -3, -0.2, x, 0.4, -8.6
